# Bioassay records (PubChem BioAssay)
# Arbovirus inh: antivirals against arbovirus infection, primary screen, cell-based, full library, 10K replicate subset; arbovirus infection cell-based antiviral screen; inhibition, % at 10 µM; AID 1251, 2008; hit rate 0.37% among 200,000;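 active means inhibition from about 30%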;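 further: bluetongue infection of BSR cells; cell survival read as ATP light after 72 h; 0% = infected wells without compound and 100% = uninfected wells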
# YopH PTP inh: YopH tyrosine phosphatase inhibitors, primary screen, biochemical, fluorescence Ex485/Em525; hit rate 0.16% among 140,000; inhibition, %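 (about 10 µM by stock and volumes)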;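 active means inhibition of 50% or more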;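 further: controls were vehicle for no effect and minimum signal wells for full effect; inactives centre near -20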
# Mtb betalactam: beta-lactam sensitization of Mtb H37Rv, H37Rv. AID 434955, 2010. hit rate 0.27% among 330,000. M. tuberculosis H37Rv growth with meropenem, percent inhibition; hits of this screen are not shown here. inhibition, % at 25 µM;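 active means about 74% or more and at least 40 points above the plate without the antibiotic, then above 30% in a dose series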;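 further: growth measured after seven days incubation then overnight dye step; 0% = bacteria only wells and 100% = bacteria with antibiotic; twin plates without the antibiotic show which effects depend on it; some results filed as inactive read as strong as hits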
# RecA splice inh: Mtb RecA intein splicing inhibitors, primary screen, biochemical, fluorescence, HTS | Protein RecA (Mycobacterium tuberculosis (strain ATCC 25618 / H37Rv)), P9WHJ3 | cell-free RecA intein splicing | inhibition, %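 (about 9 µM by stock and volumes)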 | hit rate 0.75% among 290,000; in the data active means inhibition above about 30%;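 further: 0% = vehicle wells and 100% = reference inhibitor control wells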
# Target sequence (P9WHJ3 whole entry, looked up, canonical isoform): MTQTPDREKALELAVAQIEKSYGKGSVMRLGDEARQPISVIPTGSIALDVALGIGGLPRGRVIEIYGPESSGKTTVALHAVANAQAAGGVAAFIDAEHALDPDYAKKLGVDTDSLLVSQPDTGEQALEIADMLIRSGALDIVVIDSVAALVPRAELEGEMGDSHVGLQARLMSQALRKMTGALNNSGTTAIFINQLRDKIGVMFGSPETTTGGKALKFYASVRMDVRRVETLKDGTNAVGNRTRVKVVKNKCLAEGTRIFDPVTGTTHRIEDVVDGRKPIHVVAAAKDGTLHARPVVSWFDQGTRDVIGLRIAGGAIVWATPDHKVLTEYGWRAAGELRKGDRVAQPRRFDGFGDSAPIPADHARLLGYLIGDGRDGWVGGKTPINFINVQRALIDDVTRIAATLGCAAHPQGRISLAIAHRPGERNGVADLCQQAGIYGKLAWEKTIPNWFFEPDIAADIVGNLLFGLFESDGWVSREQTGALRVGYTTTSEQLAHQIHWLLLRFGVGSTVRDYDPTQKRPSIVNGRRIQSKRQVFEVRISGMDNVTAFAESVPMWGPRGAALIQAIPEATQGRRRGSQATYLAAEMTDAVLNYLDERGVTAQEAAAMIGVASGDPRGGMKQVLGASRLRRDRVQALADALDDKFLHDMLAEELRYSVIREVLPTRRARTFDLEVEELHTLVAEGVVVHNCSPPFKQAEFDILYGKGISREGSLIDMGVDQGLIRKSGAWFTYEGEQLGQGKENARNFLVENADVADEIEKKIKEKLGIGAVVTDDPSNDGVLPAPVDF
# Mtb H37Rv: M. tuberculosis H37Rv growth inhibitors, H37Rv strain (AID 1626); hit rate 0.95% among 220,000; inhibition, % at 10 µM, or IC50 in µM where a hit was titrated; M. tuberculosis H37Rv growth inhibition; higher % means a stronger effect;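 active means confirmed in a dose series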;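 further: bacteria incubated seven days before Alamar blue readout; 0% = bacteria only wells and 100% = bacteria with antibiotic wells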
# Starred values were filed as active, the others as inactive; . = no result given. These rows are one share of the data; the hit share may differ from the screen's.
no.	mol	Arbovirus inh	YopH PTP inh	Mtb betalactam	RecA splice inh	Mtb H37Rv
1	O=c1cc(C(F)(F)F)nc(-n2[nH]c3c(c2=O)CCCC3)[nH]1	-18	-24	84	-10	4%
2	N/C(=N\c1nc(CSc2nnnn2-c2ccccc2)cc(=O)[nH]1)Nc1ccccc1	0	.	5	-1.8	.
3	Cc1cc(C)c(S(=O)(=O)Nc2cccc(S(=O)(=O)NC3=NCCC3)c2)c(C)c1	10	.	15	5.0	5%
4	N#CCCN(C(=O)CCl)c1cccc(Cl)c1	-34	.	99	45*	32%
5	Cc1c(C)c2ccc(OCC(=O)N(C)C)c(C)c2oc1=O	2	-35	2	-4.3	-9%
6	CCOC(=O)Cn1nc(C)cc1NC(=O)c1ccncc1	0	.	-16	1.6	-1%
7	CC(=O)CC(c1ccc([N+](=O)[O-])cc1)c1c(O)c2ccccc2oc1=O (configuration not stated)	1	1	5	-3.6	3%
8	O=C(CSc1nnc(-c2ccccc2Br)o1)N1CCc2ccccc2C1	-1	-30	99	19	2.3µM*
9	O=C(O)CCCn1cc(NC(=O)c2ccco2)cn1	2	.	-11	-0.7	-1%
10	CC(=O)c1cccc(NC(=O)c2cc(=O)[nH]c3ccccc23)c1	.	.	-5	-0.7	.
11	CCOC(=O)c1nn(-c2cc(C(=O)OC)cc(C(=O)OC)c2)cc1O	-1	-42	6	0.3	-12%
12	O=C(c1ccco1)N(Cc1cccc(Cl)c1)C1CCS(=O)(=O)C1 (configuration not stated)	.	.	1	-2.9	.
13	Cc1nnc(NC(=O)C2CSC3(C)CCC(=O)N23)s1 (configuration not stated)	.	.	-4	-176	.
14	O=C(O)c1nn(CCOc2ccc(Cl)cc2Cl)c(=O)c2ccccc12	.	.	-5	-0.8	.
15	Cc1ccc(NC(=O)Cn2cccc2)c(Br)c1	-1	-50	-16	0.8	1%
16	COc1ccccc1-n1c(-c2ccc(Cl)cc2)c[nH]c1=S	-3	.	7	0.5	-2%
17	Oc1ccc(Nc2nnc(-c3ccc(O)cc3)c3ccccc23)cc1	-1	.	8	3.3	-6%
18	CN1CCN(S(=O)(=O)c2ccc(N3CCN(c4ccc(O)cc4)CC3)c([N+](=O)[O-])c2)CC1	.	.	30	-5.8	.
19	C[C@H](NC(=O)c1ccccc1)C(=O)N1CCN(c2ccccc2)CC1	.	.	-4	0.0	.
20	C[C@H](N)c1nnc(SCc2c(Cl)cccc2Cl)o1	2	-14	0	4.1	-1%
21	COc1cccc(CNC(=O)CCC2CCCN(C(=O)c3cscn3)C2)c1 (configuration not stated)	1	.	-5	-1.6	-1%
22	COc1ccc(N2CCN(C(=O)CN(CCc3ccccc3)S(C)(=O)=O)CC2)cc1	6	-13	-1	1.4	-8%
23	COc1ccnc(Oc2ccc(F)cc2)c1C(=O)N/C=N/OCc1ccc(F)cc1	-2	0	3	0.7	-2%
24	Cc1cc(C)nc(NC(=O)/C=C/c2ccccc2Cl)n1	-34	-33	3	8.4	-5%
25	CN(C)CCN(C(=O)c1ccc(S(=O)(=O)N(C)c2ccccc2)cc1)c1nc2ccc(Cl)cc2s1	.	.	-14	1.8	.
26	Cc1ccc2sc(N(CCCN(C)C)C(=O)c3ccc(S(=O)(=O)N(C)C4CCCCC4)cc3)nc2c1C	.	.	88	18	.
27	COc1cc(/C=N/NC(=O)CSc2cc(C)c(Br)cc2C)ccc1O	-15	-8	1	-0.1	-4%
28	COCC(=O)Oc1c(Sc2ccccc2[N+](=O)[O-])c(C)nn1C(C)(C)C	-6	.	-1	8.3	2%
29	COc1cc(/C=C2\C(=O)N(CCC#N)N=C2C)c(Br)cc1OC(C)C	-9	-36	-2	14	-14%
30	COC(=O)C1C(=O)C2=C(CC1C)NC(C)=C(C(=O)OCc1ccc(OC)cc1)C2c1ccc(C)o1 (configuration not stated)	-11	-4	-3	.	-7%

# Shown with two lines to a compound: part of the list above.
# Each structure is followed by: Arbovirus inh	YopH PTP inh	Mtb betalactam	RecA splice inh	Mtb H37Rv
2	N/C(=N\c1nc(CSc2nnnn2-c2ccccc2)cc(=O)[nH]1)Nc1ccccc1
 : 0	.	5	-1.8	.
3	Cc1cc(C)c(S(=O)(=O)Nc2cccc(S(=O)(=O)NC3=NCCC3)c2)c(C)c1
 : 10	.	15	5.0	5%
4	N#CCCN(C(=O)CCl)c1cccc(Cl)c1
 : -34	.	99	45*	32%
5	Cc1c(C)c2ccc(OCC(=O)N(C)C)c(C)c2oc1=O
 : 2	-35	2	-4.3	-9%
6	CCOC(=O)Cn1nc(C)cc1NC(=O)c1ccncc1
 : 0	.	-16	1.6	-1%
7	CC(=O)CC(c1ccc([N+](=O)[O-])cc1)c1c(O)c2ccccc2oc1=O (configuration not stated)
 : 1	1	5	-3.6	3%

# More records.
no.	mol	Arbovirus inh	YopH PTP inh	Mtb betalactam	RecA splice inh	Mtb H37Rv
31	COc1cccc(CN2CCC(n3nccc3NC(=O)CCCc3ccccc3)CC2)c1	.	.	-4	0.3	.
32	CCOC(=O)N1CCN(C(=O)c2ccc(NS(C)(=O)=O)cc2)CC1	5	-5	-9	-1.0	-8%
33	CNc1nc(-c2ccc([N+](=O)[O-])cc2)cs1	-2	-6	-1	1.6	5%
34	Nc1ncn([C@H]2C[C@H](O)[C@@H](CO)O2)c(=O)n1	.	.	0	-1.5	.
35	Cn1c(=O)oc2cc(S(=O)(=O)NCCC(=O)NC3CCCC3)ccc21	6	-25	1	1.1	-2%
36	CCOC(=O)Nc1ccc([N+](=O)[O-])cc1OC	.	-24	1	-0.6	-12%
37	CCNC(=S)N1CCN(CCNC2=CC(=O)CC(C)(C)C2)CC1	-3	.	-3	0.2	-3%
38	C=CCn1c(=NC(=O)C2COc3ccccc3O2)sc2cc(S(N)(=O)=O)ccc21 (configuration not stated)	1	-22	9	3.4	4%
39	COc1ccc(NC(=O)CSc2nnc(Cc3cccs3)n2C)cc1	.	.	-2	-0.3	.
40	Cc1[nH]c2ccc(C(=O)NCCCN3CCN(C)CC3)cc2c1C	.	.	4	-4.9	.
41	CC(=NCCN1CCCCC1)c1c(O)n(-c2ccccc2)c(=O)[nH]c1=O	.	.	1	-2.4	-6%
42	C/C=C\C(=O)Nc1cccc(C2=NOC3(C2)C[C@@H](C(N)=O)N(C(=O)CCCCC)C3)c1 (some centres not stated)	.	.	-14	0.6	-4%
43	O=C(O)CSC(NC(=O)c1cccnc1)(C(F)(F)F)C(F)(F)F	-1	-51	-4	-6.2	-2%
44	O=C(NC(Cc1c[nH]c2ccccc12)C(=O)O)c1cccs1 (configuration not stated)	5	.	-1	-1.8	-3%
45	COc1ccccc1OCc1ccc(C(=O)N/N=C/c2ccco2)cc1	-4	-22	1	0.6	8%
46	Cc1ccc(CN(C)CCc2ccccn2)cc1	2	6	5	-1.6	1%
47	O=C(c1cccc(NS(=O)(=O)c2cccc(F)c2)c1)N1CCN(c2ccccc2)CC1	1	-21	-5	0.3	-6%
48	O=C(CSc1nnc2sc3ccccc3n12)N1CCN(c2ccccc2)CC1	1	-7	-3	-1.0	-4%
49	COc1ccc2c(c1)C(c1ccccc1)=NNC(c1ccco1)=N2	-1	-35	2	-7.0	-1%
50	CCOCCCNC(=O)C(c1ccccc1)N(Cc1cccs1)C(=O)CNC(=O)c1ccccc1 (configuration not stated)	-2	-28	-1	-3.6	4%
51	CCN(CC)c1nc(C)c2c(c1C#N)CC(C)(C)OC2	-1	-58	6	1.1	0%
52	Cc1cccc(OCCCCCN2CCOCC2)c1C	.	.	0	-1.3	.
53	Cc1ccc(S(=O)(=O)N2CCCCC2)cc1NC(=O)c1ccccn1	.	.	-9	-1.7	-2%
54	CCOC(=O)CSCCOc1ccc(C=C2C(=O)NC(=O)NC2=O)cc1OC	-1	.	-3	73*	-14%
55	CCOc1ccc(S(=O)(=O)N2CCN(c3ccccc3F)CC2)c2cccnc12	22	-9	1	-1.0	-2%
56	CCN(CC)S(=O)(=O)c1ccc(Cl)c(NC(=O)COc2ccc(OC)cc2[N+](=O)[O-])c1	2	-16	-2	-0.8	10%
57	Cc1ccc(Nc2ccc(S(=O)(=O)N3CCOCC3)cc2[N+](=O)[O-])cc1C	1	-35	-6	-2.5	5%
58	O=C(COC(=O)CCC(=O)c1cccs1)NCc1ccccc1	-2	.	1	-0.2	7%
59	CCC1CCCCN1C(=S)Nc1ccc(C(C)=O)cc1 (configuration not stated)	4	-23	-11	0.6	1%
60	Cc1cc(NC(=O)CCN2CC(C)OC(C)C2)ccc1Br (configuration not stated)	.	.	-5	1.1	.

# Remaining list, next part
no.	mol	Arbovirus inh	YopH PTP inh	Mtb betalactam	RecA splice inh	Mtb H37Rv
61	Cc1ccc(Nc2nc(N)nc(CN3CCN(Cc4ccc5c(c4)OCO5)CC3)n2)c(C)c1	-7	-2	61	-1.5	-7%
62	COc1ccc(Oc2ccc(C(F)(F)F)cc2NC(=O)CC(CC(=O)O)c2ccccc2)cc1 (configuration not stated)	.	.	0	1.0	.
63	CCC(O)(CC)C(=O)N(Nc1ccc(C)cc1)c1ccc(C)cc1	.	.	4	2.3	.
64	CS(=O)(=O)N1CCC(Oc2ccccc2C(=O)N2CCN(CC3CC3)CC2)CC1	-4	.	-5	-3.5	-7%
65	COc1ccc(C2C(C(=O)Nc3ccc(OC)c(OC)c3)c3ccccc3C(=O)N2C)cc1 (configuration not stated)	-5	.	3	-0.7	-2%
66	COc1ccc(CNC(=O)CCC2N=C3c4ccccc4N=C(SCC(=O)NCC4CCCO4)N3C2=O)cc1 (configuration not stated)	.	.	-7	0.3	.
67	CC(=O)Nc1c(Nc2ccccc2)c2ccccc2oc1=O	2	.	-4	0.7	4%
68	O=C(c1cc(-c2ccc(O)cc2)on1)N1CCN(c2ccccc2)CC1	.	.	-1	3.7	.
69	COc1ccc(OC)c(/C=N/NC(=O)CCN2CCN(C(c3ccccc3)c3ccccc3)CC2)c1	-34	-13	0	-6.3	9%
70	COCCn1c(-c2ccccc2)nc2c(c(=O)c3ccccc3n2C)c1=O	5	-23	0	0.6	11%
71	COc1ccc(C2NC(=O)NC(C)=C2C(=O)OCc2ccccc2)cc1 (configuration not stated)	.	.	3	-0.6	.
72	CCCN(CC(=O)Nc1ccc(F)c(F)c1F)C(=O)C1=COCCO1	.	.	-4	0.8	.
73	Cc1cc(NC(=O)C2CC(=O)OC2c2ccccc2)no1 (configuration not stated)	-2	-40	-4	-0.4	-10%
74	O=C1CCCC/C1=C/Nc1cccc(C(F)(F)F)c1	0	.	0	0.0	1%
75	N#Cc1c2c(c(NCc3cccnc3)n3c1nc1ccccc13)CCC2	1	-37	-8	-7.0	-5%
76	COc1ccccc1NC(=O)Nc1nn(C)c2cccc(N(C)C)c12	.	.	2	17	9%
77	Cc1cc(C)n(C(=O)CNc2cccc(Cl)c2C)n1	10	-26	-3	2.2	2%
78	COc1ccc(-c2nc(C#N)c(N3CCN(c4ccccc4)CC3)o2)cc1	4	-13	0	1.1	2%
79	NNC(=O)CCS(=O)(=O)c1ccc2ccccc2c1	4	-77	-3	0.3	-9%
80	O=C(NCC1CCCO1)C1CC(=O)N(c2ccc(Cl)cc2)C1 (configuration not stated)	.	.	-1	-2.4	.
81	Cc1nn(Cc2ccccc2)c2ncccc12	.	.	3	0.0	.
82	Nc1nnc(CC(=O)N/N=C/c2ccccc2OCc2ccc(F)cc2)s1	.	.	-7	1.8	7%
83	COc1ccc(-c2cccc(C(=O)N3CCOCC3)c2)cc1	.	.	-5	-0.2	.
84	Cc1ccc(OCC(=O)NC(=S)Nc2cccc(NC(=O)c3ccc(Cl)cc3Cl)c2)cc1	-7	-27	94	-1.0	75%
85	CCOc1cc(CNCc2ccncc2)cc(Br)c1OCc1ccccc1F	-2	-6	85	7.4	12%
86	CCCNC(=O)OC[C@H]1O[C@H](CCO/N=C/[C@@H](OC)[C@H](C)/C=C/CC(=O)OC)C=C[C@@H]1Oc1ccc(OC)cc1	25	-24	-6	2.7	.
87	O=C(Cc1c(C(=O)O)[nH]c2ccccc12)NCCN1CCN(c2ccccc2F)CC1	-4	-47	4	-2.8	1%
88	COc1ccc(C(=O)NC(=S)Nc2cccc3cc(O)ccc23)cc1OC	.	.	-11	0.5	.
89	CCOc1ccc(CCNC(=O)c2nnc(CS(=O)(=O)c3ccccc3)o2)cc1OCC	.	.	0	-0.1	.
90	COc1ccc(-c2c(C)n([O-])c3c([n+]2=O)CCC3)cc1OC	-3	-14	-8	-1.8	-3%

# Later entries.
no.	mol	Arbovirus inh	YopH PTP inh	Mtb betalactam	RecA splice inh	Mtb H37Rv
91	O=C(CSc1nnc(-c2cccnc2)s1)Nc1ccc(C(=O)O)cc1	2	-30	0	1.4	-15%
92	O=C(NCC(=O)N1CCOCC1)OCc1ccccc1	.	.	-7	-4.0	.
93	CC(NC(=O)/C=C/c1ccco1)c1nc2ccccc2n1Cc1cccc(Cl)c1 (configuration not stated)	5	2	7	3.2	.
94	CCOc1ccc(NC(=O)C(=O)N/N=C\c2ccc(CNS(=O)(=O)c3ccccc3)o2)cc1	-15	-27	2	1.2	5%
